FEN1 inh: inhibitors of human flap endonuclease 1; P39748; Recombinant FEN1 flap cleavage, fluorescence, 15 min; Potency, µM (top dose mostly 114 µM), for inactives: at the top dose activity change, negative = inhibition, actives largely listed as inhibitors; 390,000 compounds, 0.35% hits; AID 588795; also: nearly all actives have a fitted effect of over 65% in size
Target sequence (P39748 whole entry, looked up): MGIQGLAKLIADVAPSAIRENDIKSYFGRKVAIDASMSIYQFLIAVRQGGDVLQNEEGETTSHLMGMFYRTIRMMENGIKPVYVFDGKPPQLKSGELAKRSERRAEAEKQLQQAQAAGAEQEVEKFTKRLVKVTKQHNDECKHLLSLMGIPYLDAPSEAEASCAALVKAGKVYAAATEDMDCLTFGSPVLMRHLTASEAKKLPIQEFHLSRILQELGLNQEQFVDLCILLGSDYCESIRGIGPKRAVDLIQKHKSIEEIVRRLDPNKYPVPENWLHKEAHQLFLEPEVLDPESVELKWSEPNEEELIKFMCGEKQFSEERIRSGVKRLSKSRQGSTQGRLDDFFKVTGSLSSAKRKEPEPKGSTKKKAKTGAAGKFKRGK
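FEN1 at 10 nM preincubated with compounds 15 min at room temperature, then flap DNA substrate added at 50 nM final. Signal read at 0 and 15 min; concentration-response fitted with four-parameter Hill equation.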
TDP1 inh: blocks human tyrosyl-DNA phosphodiesterase 1. Potency, µM (highest dose often 130 µM), inactives show top-dose activity change, negative = inhibition, usual class: inhibitors. 350,000 compounds, 0.28% hits. Q9NUW8. AID 485290. recombinant TDP1, AlphaScreen DNA substrate cleavage; also: nearly all actives have a fitted effect of over 40% in size
Target sequence (Q9NUW8 whole entry, looked up): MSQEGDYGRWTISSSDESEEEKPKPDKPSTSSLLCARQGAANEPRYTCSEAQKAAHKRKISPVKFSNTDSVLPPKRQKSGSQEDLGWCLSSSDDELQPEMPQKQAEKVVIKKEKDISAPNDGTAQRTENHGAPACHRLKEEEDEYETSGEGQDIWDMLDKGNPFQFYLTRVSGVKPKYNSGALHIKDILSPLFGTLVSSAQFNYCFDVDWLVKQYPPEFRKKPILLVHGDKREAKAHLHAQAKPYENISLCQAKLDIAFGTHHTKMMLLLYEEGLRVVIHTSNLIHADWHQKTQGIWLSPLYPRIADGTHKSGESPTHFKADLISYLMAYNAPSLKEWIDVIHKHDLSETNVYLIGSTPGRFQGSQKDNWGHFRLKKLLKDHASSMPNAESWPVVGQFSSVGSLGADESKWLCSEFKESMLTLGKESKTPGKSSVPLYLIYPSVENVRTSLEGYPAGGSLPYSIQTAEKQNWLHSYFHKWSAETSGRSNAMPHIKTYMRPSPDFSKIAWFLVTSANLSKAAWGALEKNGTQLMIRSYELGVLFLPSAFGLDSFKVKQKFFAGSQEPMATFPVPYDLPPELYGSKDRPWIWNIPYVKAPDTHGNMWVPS
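Signal: AlphaScreen proximity between streptavidin donor and anti-FITC acceptor beads on intact substrate. Reaction: Tdp1 1 nM, substrate 15 nM final, 5 min RT after 15 min compound preincubation.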
Active calls of the source: *; . = no result given; [ ] = dose if it differs, or a comment. Calls follow the shape of the dose curve; as a rule, active = well fitted inhibition curve with a large enough effect; inconclusive = small, poorly fitted or top-dose-only effect; inactive = no such curve, though single readings can be large or run the other way. % is scaled to controls: 0 for no effect and ±100 for the full control effect; potency is read from the fitted curve at half-maximal effect. A portion of the library; most or all hits stand in other tables.

No.	molecule	FEN1 inh	TDP1 inh
1	Cc1cc(C(=O)NCc2cccnc2)no1	11%	0%
2	CCOC(=O)C1CCN(C(=O)COC(=O)c2cccc(F)c2)CC1	2%	3%
3	Cc1nn2c(-c3ccco3)nnc2c2ccccc12	9%	3%
4	Cc1ccc(N2C(=O)CC(c3c[nH]c4ccccc34)C2=O)cc1 (centres undefined)	-7%	4%
5	Cc1cc(C)c(S(=O)(=O)NCC2CCC(C(=O)NCCCN3CCOCC3)CC2)c(C)c1 (centres undefined)	0%	-2%
6	C=CCNC(=O)c1scc2c1CCCC2	-9%	2%
7	COc1ccc(OCCOC(=O)c2cc(S(=O)(=O)N3CCOCC3)c(Cl)cc2Cl)cc1	-1%	.
8	CCCn1c(CN2CCN(C(C)=O)CC2)nc2cc(S(=O)(=O)N(C)C)ccc21	14%	20%
9	CCOC(=O)COc1ccsc1C(=O)OC	2%	0%
10	Cc1ccc2nc(NC(=O)c3ccc(Cn4cc(Cl)cn4)o3)sc2c1	4%	5%
11	O=c1c(-c2cc3ccccc3o2)[n+]([O-])c2ccccc2n1OCc1ccccn1	4%	3%
12	N=c1c2c3c(sc2ncn1N)CCC3	0%	6%
13	O=C(CCNC(=O)c1ccco1)Nc1ccc(SC(F)F)cc1	-1%	-2%
14	CCN1C(=O)c2cccc3c(S(=O)(=O)NCCCN4CCOCC4)ccc1c23	-6%	5%
15	C=CCNC(=O)c1c(Cl)cnn1-c1ccc(C)cc1	1%	.
16	CCn1ccnc1CNCc1ccc(OCC(O)CN(C)Cc2ccccc2)cc1 (centres undefined)	-2%	.
17	Cc1ccc(NC2CCCN(C(=O)C3CCCC3)C2)cc1C (centres undefined)	-8%	0%
18	CCC(=O)NC1CCN(C(=S)NC)CC1	-2%	0%
19	O=C(O)[C@H](O)[C@@H](O)C(=O)O	13%	.
20	O=C1c2ccccc2S(=O)(=O)N1Cc1ccccc1[N+](=O)[O-]	4%	.
21	NC(=O)c1cc2cc(Cl)ccc2o/c1=N/NC(=O)c1cccs1	0%	0%
22	O=C(N/C(=C/c1ccco1)C(=O)N1CCCCC1)c1cccs1	5%	0%
23	CC(=O)c1cn(CC(=O)Nc2ccccc2)c2ccccc12	-3%	0%
24	CCC(C)(C)NC(=O)C(c1cccc(OC)c1OC)N(CC(C)C)C(=O)CCC(=O)Nc1cc(C)on1 (centres undefined)	9%	3%
25	Cc1cccc(-n2ncc3c2CCCC3NC(=O)CN2CCCC2=O)c1C (centres undefined)	0%	2%

Of the compounds above, these contain an aryl methoxy group.
No.	molecule	FEN1 inh	TDP1 inh
7	COc1ccc(OCCOC(=O)c2cc(S(=O)(=O)N3CCOCC3)c(Cl)cc2Cl)cc1	-1%	.
24	CCC(C)(C)NC(=O)C(c1cccc(OC)c1OC)N(CC(C)C)C(=O)CCC(=O)Nc1cc(C)on1 (centres undefined)	9%	3%

Later entries.
No.	molecule	FEN1 inh	TDP1 inh
26	O=C(N/C(=C/c1cccc([N+](=O)[O-])c1)C(=O)N1CCCCCC1)c1ccco1	-15%	4%
27	Cc1ccc(NC(=O)CCNC(=O)c2ccccc2)cc1F	-3%	.
28	CCC(Oc1cc(Cl)ccc1Cl)C(=O)N1CCCN(C)CC1 (centres undefined)	-11%	3%
29	CCOC(=O)c1c(C)[nH]c(C)c1S(=O)(=O)N(C)CC(=O)Nc1ccc(C)cn1	-14%	2%
30	Cc1ccc(N=C2NC(=O)/C(=C/c3cccnc3)S2)c(C)c1	-1%	6%
31	CN1CCN(C(=O)Nc2ccc([N+](=O)[O-])cc2)CC1	15%	3%
32	COc1ccccc1-c1nnc(NC(C)=O)s1	2%	6%
33	NNC(=O)CNc1cccc(Br)c1	16%	.
34	CCO/C=N/Nc1nc(C(F)(F)F)nc2c1cnn2Cc1ccccc1	-27%	.
35	O=C(Nc1ccc2c(c1)OCO2)c1cc(-c2cccc(O)c2)on1	4%	5%
36	COCCn1c(N)c(C(=O)NS(=O)(=O)c2ccc(C)cc2)c(=O)[nH]c1=O	1%	0%
37	COc1ccc(C(=O)Nn2c(C)nc3ccccc3c2=O)cc1	20%	.
38	Nc1ccc2oc(CCc3ccccc3)nc2c1	-1%	0%
39	O=C(O)CCCCCNc1nc(-c2ccccc2)nc2ccccc12	-1%	3%
40	Cc1cccc(NC(=O)CSCC(=O)Nc2cc(S(=O)(=O)N3CCOCC3)ccc2OC(C)C)c1	-7%	-5%
41	CN(C)C1CCN(C(=O)c2cccc(OC3CCN(S(=O)(=O)N(C)C)CC3)c2)C1 (centres undefined)	3%	4%
42	COc1ccc(S(=O)(=O)N2CCC(C(=O)NC3CC(C)(C)NC(C)(C)C3)CC2)cc1	1%	1%
43	O=C(Cn1nc(-c2ccccc2Cl)ccc1=O)Nc1ccccc1-c1ccccc1	2%	6%
44	COc1ccc(C(=O)C2CCCN(S(=O)(=O)c3ccc(C(C)=O)cc3)C2)c(C)c1 (centres undefined)	10%	3%
45	CN(C)c1ccc(C(=O)OCC(=O)N2CCOCC2)cc1	4%	0%
46	CCCCNC(=O)CSc1cc(=O)n(C)c2ccccc12	-7%	6%
47	COc1ccccc1N1CCN(C(=O)CN(CCc2ccccc2)S(C)(=O)=O)CC1	-8%	2%
48	Cc1cc(Cl)ccc1C(=O)C1CCCN(C(=O)c2snnc2C)C1 (centres undefined)	-6%	0%
49	O=S(=O)(CCc1nnc(-c2ccc(Br)cc2)o1)c1ccc(Cl)cc1	-7%	3%
50	Cc1ccc(C)c(S(=O)(=O)NCc2ccc(C(=O)N3CCN(c4ccccc4)CC3)cc2)c1	-9%	4%
51	Cc1cccc(CCNC(=O)c2cccc(NC3=NC4CS(=O)(=O)CC4S3)c2)c1 (centres undefined)	-2%	.
52	COc1ccc(N2CCN(C(=O)COC(=O)c3ccco3)CC2)cc1	0%	2%
53	CCOc1ccccc1N=Nc1c(C)[nH]n(C(N)=S)c1=O	-7%	.
54	COCCCn1c(Cc2csc(Nc3ccc(F)cc3)n2)nnc1SCC(N)=O	13%	4%
55	CC1Cc2ccccc2N1C(=O)CSc1nnnn1C1CCCC1 (centres undefined)	-5%	8%
56	CN(C)c1ccc(C(C(=O)NCc2ccccc2)N(Cc2cccnc2)C(=O)c2snc(C(N)=O)c2N)cc1 (centres undefined)	2%	16%
57	Cc1ccc(SCCC(=O)OC(C(=O)NC(N)=O)C(C)C)cc1 (centres undefined)	-6%	-3%
58	COc1ccc2oc(=O)c(C(=O)NCc3ccco3)cc2c1	-11%	-2%
59	COc1ccc(C(=O)N/C(=C\c2cn(S(=O)(=O)N(C)C)c3ccccc23)C(=O)NCCCN2CCOCC2)cc1	-14%	5%
60	O=C(NCCCn1ccnc1)C1c2ccccc2Oc2ccccc21	-1%	4%
61	C=CCOC(=O)C1=C(C)OC(N)=C(C#N)C1c1ccc(F)cc1 (centres undefined)	-2%	3%
62	CCOC(=O)C1(C/C(C)=N/NC(N)=O)CC(C)OC1=O (centres undefined)	7%	0%
63	Cc1ccc(C(=O)Nc2ccc(C(=O)N3CCCCC3)cc2)o1	-9%	2%
64	COC(C[C@@H]1O[C@@H]1[C@H](O)[C@@H](C)OCc1ccccc1)OC	7%	.
65	COCCN1CCn2c(nc3cc(NC(C)=O)ccc32)C1	-7%	.
66	COc1ccccc1N1CCN(C(=O)c2cc(-c3cccs3)on2)CC1	8%	4%[56.1 µM]
67	Cc1cc(=O)n2nc(N3CCCC(C(=O)N4CCc5ccccc54)C3)sc2n1 (centres undefined)	-7%	6%
68	COC(=O)c1ccc(CN(Cc2ccc(C(=O)OC)o2)C(C)(C)C)o1	1%	5%
69	O=C(NCCCN1CCCCCC1)C1CC(=O)N(C2CCCC2)C1 (centres undefined)	1%	4%
70	O=C(O)c1ccc(CSc2nnnn2C2CCCCC2)cc1	-1%	7%
71	Cc1cccc(CCNC(=O)C2CCCN(S(=O)(=O)c3cnc[nH]3)C2)c1 (centres undefined)	-3%	2%
72	COCC(=O)NC1CCN(S(=O)(=O)c2cccc(C(C)=O)c2)CC1	-6%	-1%
73	COc1ccc(/C=C2\SC(=O)N(CC(=O)NN3CCN(C)CC3)C2=O)cc1OC	0%	-6%
74	O=C(CN1CCC(n2nnc3cc(C(F)(F)F)ccc32)CC1)NNC(=O)c1ccco1	-3%	3%
75	O=C(CCc1ccccc1Cl)Nc1cccc(S(=O)(=O)N2CCCC2)c1	0%	3%

Next part:
No.	molecule	FEN1 inh	TDP1 inh
76	CC(=O)N(Cc1c(C)nn(-c2ccccc2)c1Cl)c1ccc(Cl)cc1	-18%	6%
77	COC(=O)CC1(C(=O)OC)Oc2ccc(Br)cc2C(=O)N1c1cccc(Cl)c1Cl (centres undefined)	-27%	-4%
78	O=C(NC1CCCCC1)C(c1ccc(O)c(O)c1)N(C(=O)Cn1nnc2ccccc21)c1cccc(O)c1 (centres undefined)	-6%	-1%
79	O=C(CSc1oc(-c2ccc(F)cc2)nc1S(=O)(=O)c1ccccc1)NCC1CCCO1 (centres undefined)	10%	0%
80	Cc1nn(-c2ccccc2)c(C)c1/C=C/C(=O)OC(C)C(N)=O (centres undefined)	5%	3%
81	CCCCNC(=O)Cc1coc2ccc3ccccc3c12	-1%	4%
82	COC(=O)c1ccc(N2CCN(S(=O)(=O)c3ccc(Br)cc3)CC2)c([N+](=O)[O-])c1	-17%	8%
83	CC(C)c1ccc(-c2nnc(SCC(=O)NC3CC3)n2C)cc1	-4%	-4%
84	O=c1c2ccccc2[nH]c(=S)n1CCCn1ccnc1	-3%	.
85	CC(=O)NC1(C(F)(F)F)NC(=O)N(CC(C)C)C1=O (centres undefined)	13%	-1%
86	N=c1ccn(Cc2cccc(F)c2)cc1	0%	-1%
87	CCc1ccccc1NC(=O)C1CC(c2ccc(F)cc2)=NO1 (centres undefined)	-18%	0%
88	CCC(C)[C@H](NC(=O)c1cc2cc(Cl)ccc2n1C)C(=O)N1CCC[C@H]1C(=O)O (some centres undefined)	-4%	.
89	CC(C)(C)CN1CCNC(=O)C1CC(=O)NCc1cccc(-n2cccn2)c1 (centres undefined)	0%	6%
90	O=C(CN1CCN(c2ccc(F)cc2)CC1)Nc1ccc(F)c(F)c1	-3%	3%
91	CC(C)N1CCC(N2CCN(Cc3ccc4nonc4c3)CC2CCO)CC1 (centres undefined)	-1%	.
92	O=C1NC(c2ccc(Cl)cc2)Oc2ccccc21 (centres undefined)	11%	2%
93	CCSc1nnc(NC(=O)C2CCN(S(=O)(=O)c3ccccc3C(F)(F)F)CC2)s1	1%	2%
94	O=C(NCCc1c[nH]c2ccccc12)c1ccco1	-4%	.
95	C=CCOC(=O)C1=C(C)NC(SC)=C(C#N)C1c1cccs1 (centres undefined)	-18%	2%
96	O=C(Nc1ccccc1Br)c1ccc2nccnc2c1	13%	1%[0.0935 µM]
97	N=C1/C(=C/c2cccn2Cc2ccc(F)cc2)C(=O)N=C2SC=CN12	11%	5%
98	O=C(CNS(=O)(=O)c1ccc(F)c(Cl)c1)NCCc1ccccc1	-7%	.
99	c1ccc(-c2nn3c(C4CCCCC4)nnc3s2)nc1	0%	-1%
100	CCOC(=O)c1cnc(C(F)(F)F)nc1Oc1ccccc1	7%	-6%
101	CCc1nnc(NC(=O)CN2CCOCC2)s1	6%	-1%
102	CCOC(=O)c1ccc(CNCc2ccc(C)cc2)cc1	-11%	-6%
103	COc1ccccc1NC(=O)c1c(C)nc2ccccc2c1C(=O)O	-9%	8%
104	CCc1ccc(OCCNC(=O)c2cc(SC)ccc2Cl)cc1	-9%	-2%
105	Cc1ccc(NC(=O)C(=O)NCCc2c[nH]c3ccccc23)cc1C	-3%	1%
106	Cc1c(C(=O)N2CCc3ccccc3C2)oc2ccc(Br)cc12	-12%	.
107	O=C(CSCCO)Nc1nccs1	11%	1%
108	O=C1N/C(=N/N=C/c2ccc(F)cc2)SC1c1ccccc1 (centres undefined)	-13%	3%
109	COc1cccc(N2CCN(C(=O)CN(c3ccc(C)cc3)S(=O)(=O)c3c(C)n[nH]c3C)CC2)c1	2%	4%
110	COc1ccccc1NC(=O)C(=O)NCC(c1ccco1)N1CCc2ccccc2C1 (centres undefined)	-12%	3%[0.505 µM]

Structural class: those above containing bromine.
No.	molecule	FEN1 inh	TDP1 inh
33	NNC(=O)CNc1cccc(Br)c1	16%	.
49	O=S(=O)(CCc1nnc(-c2ccc(Br)cc2)o1)c1ccc(Cl)cc1	-7%	3%
77	COC(=O)CC1(C(=O)OC)Oc2ccc(Br)cc2C(=O)N1c1cccc(Cl)c1Cl (centres undefined)	-27%	-4%
82	COC(=O)c1ccc(N2CCN(S(=O)(=O)c3ccc(Br)cc3)CC2)c([N+](=O)[O-])c1	-17%	8%
96	O=C(Nc1ccccc1Br)c1ccc2nccnc2c1	13%	1%[0.0935 µM]
106	Cc1c(C(=O)N2CCc3ccccc3C2)oc2ccc(Br)cc12	-12%	.

Copied from above, 5 compounds:
No.	molecule	FEN1 inh	TDP1 inh
102	CCOC(=O)c1ccc(CNCc2ccc(C)cc2)cc1	-11%	-6%
103	COc1ccccc1NC(=O)c1c(C)nc2ccccc2c1C(=O)O	-9%	8%
104	CCc1ccc(OCCNC(=O)c2cc(SC)ccc2Cl)cc1	-9%	-2%
105	Cc1ccc(NC(=O)C(=O)NCCc2c[nH]c3ccccc23)cc1C	-3%	1%
106	Cc1c(C(=O)N2CCc3ccccc3C2)oc2ccc(Br)cc12	-12%	.

Screening data as filed in PubChem.
